AF4-AF9 inh: inhibitors of AF4 peptide binding to AF9, primary screen, biochemical, AlphaScreen, biotin-AF4 peptide, FLAG-AF9, single point. inhibition, % at 10 µM. 350,000 compounds, 0.47% hits. AID 651704, 2012. Protein AF-9 (Homo sapiens), P42568;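 active means every replicate reaching a set inhibition limit, whatever the replicate mean, cut at about 25% in these data; inconclusive means mean inhibition reaches that limit but some replicates miss it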;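 further: 0% = plate neutral control median and 100% = total signal loss; the record names both 10 and 1 µM as test concentration; the first replicate is given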
Target sequence (P42568 whole entry, looked up): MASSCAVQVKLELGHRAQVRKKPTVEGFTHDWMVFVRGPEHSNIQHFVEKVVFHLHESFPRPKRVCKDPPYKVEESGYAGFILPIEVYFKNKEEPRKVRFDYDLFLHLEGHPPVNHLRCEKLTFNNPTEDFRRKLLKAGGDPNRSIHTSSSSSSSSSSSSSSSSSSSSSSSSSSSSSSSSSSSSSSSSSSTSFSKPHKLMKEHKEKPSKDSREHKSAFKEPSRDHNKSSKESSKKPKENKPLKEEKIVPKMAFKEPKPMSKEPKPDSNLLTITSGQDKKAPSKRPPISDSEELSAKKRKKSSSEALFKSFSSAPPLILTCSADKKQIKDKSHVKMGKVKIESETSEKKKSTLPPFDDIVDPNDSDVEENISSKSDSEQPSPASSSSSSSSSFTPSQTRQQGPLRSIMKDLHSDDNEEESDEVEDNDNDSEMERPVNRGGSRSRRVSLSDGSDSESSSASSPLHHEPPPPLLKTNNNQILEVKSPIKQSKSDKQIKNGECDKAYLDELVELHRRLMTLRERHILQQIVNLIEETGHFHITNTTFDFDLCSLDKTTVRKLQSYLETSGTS
A1 inh: caspase 3/7 activation in MEF A1-2A-BIM cells, primary screen, A1 inhibitor project, cell-based, luminescence, HTS. Caspase-Glo 3/7 luminescence, 3 h; percent of clofoctol response, vehicle zero. caspase activation, % (concentration not given with the values). 330,000 compounds, 0.066% hits;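 active means over half of replicate activation scores above 10%, or exactly half above 10 with the replicate mean above 10; inconclusive means replicate mean below 10 yet half the replicates above 10; inactive means over half of replicates below 10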;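 further: wells of about 30 µL received 50 nL stock; many hits fall short of the cut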
Ecoli rRNA inh: reduced GFP signal of wild-type E. coli, primary screen, bacterial rRNA inhibitor project, GFP/RFP fluorescence, OD600, single point. E. coli WT GFP vs humanized-ribosome RFP mutants, 24 h; active compounds read low; DMSO median 0, no signal -100. GFP signal change (wild-type ribosome), % (concentration not given with the values). 350,000 compounds, 1.6% hits. AID 720706, 2013;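 active means significant combined selectivity score with lowered wild-type GFP, culture density cut under 30%, mutant RFP and density less affected; inactive means any of these conditions unmet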; further: one replicate is shown; some compounds called inactive have numbers as strong as hits
Calb FLC: C. albicans growth inhibition with fluconazole, primary screen, CaCi-2 strain, Alamar Blue fluorescence. C. albicans CaCi-2 (fluconazole-resistant clinical isolate) + fluconazole, 48 h. growth inhibition, % (test concentration not listed). 300,000 compounds, 0.57% hits. AID 1979, 2009;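 active means most replicates above 75%; inconclusive means exactly half above 75%; inactive means most below 75%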;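 further: all wells also contain fluconazole at 8 µg/ml as a sub-toxic cotreatment; 0% = median of DMSO wells and 100% = median of geldanamycin control wells; wells of about 8 µL received 7.5 nL stock; the first replicate is given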
T cruzi repl: inhibitors of intracellular T. cruzi growth, primary screen, luminescence, NIH3T3 host cells; T. cruzi beta-gal in NIH3T3, 90 h; inhibition, % (concentration not given with the values); 300,000 compounds, 1.4% hits; AID 1885, 2009;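 active means mean inhibition across valid replicates above about 55%, limit read from the data; inconclusive means mean below that limit but half or more replicates reach it; inactive means mean below it, under half of replicates reach it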;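 further: signal also drops with host cell toxicity which is not excluded here; 0% = plate median of DMSO wells and 100% = zero luminescence signal; higher percent means less beta-gal luminescence so fewer parasites; stock transfer was 50 nL into about 50 µL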
Vif A3G: inhibitors of Vif binding to APOBEC3G peptide, primary screen, biochemical, TR-FRET, GST-Vif 1-94, biotin-A3G peptide, dose response retest (AID 1117319) | TR-FRET GST-Vif / biotin-A3G peptide binding; higher % means a stronger effect; test concentration not given here; strong numbers were not always called active | inhibition, %; hits with a dose series show IC50 in µM | 260,000 compounds, 0.57% hits;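 active means above the screen mean plus three standard deviations and confirmed in dose response; inconclusive means results disagree or hit not tested in dose response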;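 further: Vif residues 1-94 fused to GST binding biotinylated APOBEC3G peptide 110-148; 0% = full assay without inhibitor and 100% = GST in place of GST-Vif; retest series ran down from 100 µM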
RanGTP-Impb inh: inhibitors of RanGTP-importin-beta interaction, primary screen, biochemical, FRET, CFP-Ran, YFP-importin-beta, homogeneous; inhibition, % (no concentration beside the values); 300,000 compounds, 1.1% hits; cell-free CFP-Ran/YFP-importin-beta FRET ratio;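 active means most replicates above 15%; inconclusive means exactly half above 15%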;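 further: 0% = DMSO wells and 100% = Ran loaded with GDP instead of GTP; wells of about 40 µL received 100 nL stock; the first replicate is given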
Beta cell apopt: inhibitors of cytokine-induced beta cell apoptosis, primary screen, luminescence. INS-1E cytokine-induced death, ATP luminescence, 48 h; percent of positive-control rescue, neutral wells zero. protection from apoptosis, % (test concentration not listed). 300,000 compounds, 0.8% hits. AID 435005, 2010;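 active means all replicates at 75% or more, or half of them and the mean; inconclusive means half reach 75% but not the mean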;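 further: 0% = cytokine-treated negative control wells and 100% = positive control rescue; higher means more ATP so stronger rescue from cytokine killing; wells of about 40 µL received 100 nL stock; the first replicate is given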
Ecoli rRNA inh OD600: also measured in Ecoli rRNA inh; calls as there; OD600 change, %; measured here: OD600 growth;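 optical density of the mix in the first replicate; 0 = DMSO median and -100 = no signal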
Ecoli rRNA inh RFP: second read-out of Ecoli rRNA inh, no call of its own (marks repeat the call); RFP signal change, %; measured here: RFP humanized mutant strains;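 first replicate; 0 = DMSO median and -100 = no signal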
Starred values were filed as active, the others as inactive; ? = inconclusive; / = no result given; & = joins results of further samples. Some of the compounds tested; count on the stated rates, not on these rows.

Structure	AF4-AF9 inh	A1 inh	Ecoli rRNA inh	Ecoli rRNA inh OD600	Ecoli rRNA inh RFP	Calb FLC	T cruzi repl	Vif A3G	RanGTP-Impb inh	Beta cell apopt
COc1ccc(Cl)cc1-c1nc(SCC(=O)N(C)CCC#N)n[nH]1	-0.7	0.6	-5.8	-5.7	-0.9	-12.8	1.2	/	-1.2	-4.9
O=C(NCc1ccc2c(c1)OCO2)c1ccc(Cl)nc1	-1.8	1.2	16.1	8.6	2.0	-45.9	-9.3	/	1.5	-0.2
CCc1ccc(CN2CCC(Oc3ccc(C(=O)N4CCCC4)cc3)CC2)cc1	5.3	-0.5	0.7	-5.8	-0.3	-4.4	15.6	/	3.8	-2.2
Nc1nnc(CC(=O)N2CCCCC2)s1	/	0.5	/	/	/	-9.3	-6.4	-1.1%	-2.5	0.9
COC(=O)c1sccc1N/N=C(\C)c1ccc(F)c(Cl)c1	/	-0.3	/	/	/	?	14.7	?	-4.1	-2.1
CN(C)S(=O)(=O)c1ccc(/C(O)=C2/C(=O)C(=O)N(Cc3cccnc3)C2c2ccncc2)cc1 (centres undefined)	/	0.4	/	/	/	0.4	-2.5	3.7%	-3.1	-7.7
CCOc1ccc(N(CC(=O)NC2CCCCC2)C(=O)CNC(=O)c2ccco2)cc1	/	-0.7	/	/	/	0.7	5.6	-0.1%	-0.9	-4.2
CCC1Oc2ccc(C)cc2N(CC(=O)NCCN2C(C)CCCC2C)C1=O (centres undefined)	/	0.6	/	/	/	-0.3	-0.8	-7.9%	-1.6	-9.1
CC/C(=C\C1CCCCC1)C(NP(=O)(c1ccccc1)c1ccccc1)c1ccccc1 (centres undefined)	3.1	1.1	-2.8&10.7	2.6&1.9	-1.0&-2.9	-0.7	43.9	-8.4%	5.4	6.5
O=C(O)CCCC(=O)Nc1ccc(Br)cc1	/	-0.1	/	/	/	-14.9	-14.3	-3.3%	6.8	-5.5
CC(C)n1cc(/C=C(\C#N)S(=O)(=O)c2ccccc2)c2ccccc21	/	-1.2	/	/	/	0.8	10.2	1.0%	-0.3	3.2
CCOC(=O)c1[nH]c(C)c(C(=O)NCc2ccccn2)c1C	/	-0.1	/	/	/	9.6	-1.7	24.5%	-1.1	-2.4
CCCNc1c(NS(=O)(=O)c2ccc(NC(=O)CC)cc2)c(=O)oc2ccccc12	0.3	0.3	1.1	2.2	-2.0	-0.3	16.0	/	-0.5	4.7
Cc1ccc(C)c(NC(=O)c2nnn(Cc3ccccc3)c2N)c1	/	0.2	/	/	/	0.2	-2.7	10.8%	167.5*	16.9
O=C(N/N=C/c1ccc(Cl)cc1)C(=O)N1CCCCCC1	0.2	0.8	3.9	-6.3	2.3	-18.3	-7.0	0.7%	/	-8.2
COc1cc(/C=C/c2sc3ccccc3[n+]2CCCS(=O)(=O)[O-])ccc1O	2.6	-1.7	-30.9	-27.0	58.0	-21.2	21.3	/	-120.1	28.6
O=C(Nc1cccc2c1CCCC2)c1cc([N+](=O)[O-])cc([N+](=O)[O-])c1	-5.8	-0.2	7.5	0.9	-6.3	16.3	51.3	-2.5%	3.0	17.3
CCOC(=O)c1oc2cc(O)ccc2c(=O)c1-c1ccc(OC)cc1	/	-0.9	/	/	/	5.2	-3.3	7.9%	-0.1	1.3
CCC(NC(=S)NCc1ccc(F)cc1)c1ccc(C)cc1 (centres undefined)	-1.5	0.4	-55.6	-78.2	-15.7	-28.4	-16.6	/	-0.6	-0.4
O=C(Nc1nc2ccc(S(=O)(=O)N3CCCC3)cc2s1)c1ccccn1	1.3	-1.9	15.3	10.8	5.5	37.8	63.8*	-0.6%	9.8	35.8
Cc1ccc(S(=O)(=O)N2CCN(C(C)CC(=O)O)CC2)cc1 (centres undefined)	0.4	0.8	12.7	6.1	-2.4	-2.2	4.1	-5.4%	7.9	0.6
CCCC(=O)Nc1nnc(CCN2CCCCC2)s1	/	0.4	/	/	/	?	10.1	3.0%	3.1	/
O=C(CSc1nnc(C2CC2)n1C1CC1)Nc1cccc(Br)c1	0.7	-0.3	9.7	8.0	3.4	/	/	/	/	1.0
CCCn1c(NC(=O)CN2C(=O)NC3(CCCCC3)C2=O)nc2ccccc21	-0.1	0.2	4.9	2.4	2.5	-8.0	5.2	4.8%	-0.9	4.7
CC(C)(C)C(=O)N1CCN(c2ccc(NC(=O)c3ccc([N+](=O)[O-])o3)cc2)CC1	1.0	1.3	-3.8	0.7	-7.3	-0.1	18.3	/	-0.1	-19.1
CCOC(=O)N1CCN(c2nc(-c3ccccc3)c3cc(C)ccc3n2)CC1	-10.3	-0.4	-6.1	-4.8	2.2	0.2	35.2	-5.0%	18.2*	5.0
CCn1nc(NC(=O)c2ccccc2)c2cc3cccc(C)c3nc21	-11.9	-0.1	15.6	11.5	10.1	-4.1	5.6	-12.9%	69.4*	4.1
CCOC(=O)c1cc(-c2ccccc2)nn1CC1CC(c2cccnc2)=NO1 (centres undefined)	0.8	0.1	-0.7	-2.9	3.7	7.0	-10.1	/	1.8	-0.1
CCOC(=O)C1=C(C)C2C3C(=O)N(c4ccccc4C)C(=O)C3C1(C)C1C(=O)N(c3ccccc3C)C(=O)C21 (centres undefined)	1.1	0.1	21.1	13.8	-10.2	-8.3	-17.0	10.0%	0.5	-4.3
Cc1cc(-c2nc3ccccc3o2)c2ccccc2n1	/	0.5	/	/	/	6.9	-12.8	5.2%	-3.7	4.6

Among those listed so far, 2 have a COOH group:
Structure	AF4-AF9 inh	A1 inh	Ecoli rRNA inh	Ecoli rRNA inh OD600	Ecoli rRNA inh RFP	Calb FLC	T cruzi repl	Vif A3G	RanGTP-Impb inh	Beta cell apopt
O=C(O)CCCC(=O)Nc1ccc(Br)cc1	/	-0.1	/	/	/	-14.9	-14.3	-3.3%	6.8	-5.5
Cc1ccc(S(=O)(=O)N2CCN(C(C)CC(=O)O)CC2)cc1 (centres undefined)	0.4	0.8	12.7	6.1	-2.4	-2.2	4.1	-5.4%	7.9	0.6

(listing goes on)
Structure	AF4-AF9 inh	A1 inh	Ecoli rRNA inh	Ecoli rRNA inh OD600	Ecoli rRNA inh RFP	Calb FLC	T cruzi repl	Vif A3G	RanGTP-Impb inh	Beta cell apopt
Cc1ccc(C(=O)Cn2c(N3CCOCC3)nc3c2c(=O)n(C)c(=O)n3C)cc1	/	1.1	/	/	/	-1.5	-13.9	-7.9%	4.7	8.8
CC(=O)C1=NOC(CNC(=O)c2c(-c3ccccc3Cl)noc2C)C1 (centres undefined)	/	1.1	/	/	/	-10.1	4.1	30.9%	-3.0	-3.1
c1ccc2c(CN3CCOCC3)c3ccccc3c(CN3CCOCC3)c2c1	4.5	-1.3	-2.4	-4.6	-0.2	-9.1	6.0	0.7%	-5.1	-1.1
CCN1CCN(C(=O)C(C)Sc2nnc3nc(C)cc(C)n23)CC1 (centres undefined)	2.7	-0.4	5.6	11.7	-1.1	/	/	/	/	-0.2
O=C(COC(=O)/C=C/c1ccc(C(F)(F)F)cc1)NC1CCCC1	-0.9	0.0	6.3	5.0	0.5	2.1	-5.8	6.2%	0.5	-5.3
O=C(CSc1nc2ccccc2o1)N/N=C/c1ccccc1C(=O)O	-2.3	-0.1	5.1	7.2	0.9	?	-6.6	23.7%	1.4	-3.4
c1ccc(CSc2nnc(-c3ccccc3)c(-c3ccccc3)n2)cc1	-30.5	-1.3	12.2	6.8	1.7	12.1	32.6	/	-2.5	6.5
COc1ccc(C(=O)Oc2ccc(/C=N/Nc3ccc(Cl)c(C(=O)O)c3)cc2OC)cc1	3.9	0.1	-7.9	-7.8	2.7	9.3	-11.2	/	-2.1	0.3
CN(C)c1ccc(/C=N/NC(=S)NCc2ccco2)cc1	9.6	0.2	/	/	/	3.2	10.3	-1.1%	-4.5	15.7
COc1ccc2c(C)c(CCC(=O)NC3CC3)c(=O)oc2c1C	-2.6	0.0	/	/	/	-2.4	4.3	/	-1.3	4.1
Cc1cccc2sc(N3CCN(C(=O)C4COc5ccccc5O4)CC3)nc12 (centres undefined)	-7.4	0.1	-7.5	-13.8	-0.1	-11.6	3.9	-1.2%	1.8	/
O=C1NC(=O)C(Cc2c[nH]c3ccccc23)N1 (centres undefined)	-0.4	0.0	5.8	16.0	-0.8	-0.9	-8.7	-1.6%	1.1	2.3
O=c1c(C(c2ccc(O)cc2)c2c(O)nc3n(c2=O)CCS3)c(O)nc2n1CCS2	/	0.0	/	/	/	-1.5	-16.2	12.4%	-0.2	-0.6
COc1cccc(NC(=O)COc2ccccc2C(N)=O)c1	/	-6.7	/	/	/	12.5	-10.5	-0.5%	1.7	-2.1
CCOC(=O)c1[nH]c2ccc(OC)cc2c1NC(=O)CN1CCC2(CC1)OCCO2	/	-0.2	/	/	/	-0.7	5.0	-0.7%	2.9	/
N#Cc1ccc(C(=O)CSc2n[nH]c(=O)n2-c2cccnc2)cc1	-4.7	-0.4	10.9	12.3	2.9	-1.1	/	/	8.6	-1.8
CCOc1ccc2nc(SCC(=O)NC3CC3)sc2c1	-1.3	-0.4	2.8	6.1	0.5	-3.0	-12.9	/	4.0	-2.4
Cc1nc(N2CCC(C)CC2)c2c(C)c(C(=O)Nc3ccc4c(c3)OCCO4)sc2n1	0.5	0.3	-8.8	-2.0	-2.9	17.4	25.5	/	0.6	6.8
COc1ccc(CC(C(=O)Nc2cccc(F)c2)c2nn[nH]n2)c(OC)c1 (centres undefined)	/	-0.1	/	/	/	-2.6	-18.9	-5.7%	-0.8	-2.9
CCN1CCN(C(=O)C(=O)c2c(C)[nH]c3ccccc23)CC1	-0.2	0.2	0.6	12.3	0.9	-11.6	11.8	0.5%	-3.1	-1.6
CCN1CCN(C(=O)c2cc3cc([N+](=O)[O-])ccc3oc2=O)CC1	3.5	0.9	13.4	12.6	-1.6	11.5	-4.4	-13.1%	6.2	2.8

A draw from above in order of number of heavy atoms, smallest number first:
Structure	AF4-AF9 inh	A1 inh	Ecoli rRNA inh	Ecoli rRNA inh OD600	Ecoli rRNA inh RFP	Calb FLC	T cruzi repl	Vif A3G	RanGTP-Impb inh	Beta cell apopt
Cc1cc(-c2nc3ccccc3o2)c2ccccc2n1	/	0.5	/	/	/	6.9	-12.8	5.2%	-3.7	4.6
CCCNc1c(NS(=O)(=O)c2ccc(NC(=O)CC)cc2)c(=O)oc2ccccc12	0.3	0.3	1.1	2.2	-2.0	-0.3	16.0	/	-0.5	4.7
CN(C)S(=O)(=O)c1ccc(/C(O)=C2/C(=O)C(=O)N(Cc3cccnc3)C2c2ccncc2)cc1 (centres undefined)	/	0.4	/	/	/	0.4	-2.5	3.7%	-3.1	-7.7
